Bioassay records deposited in PubChem BioAssay by National Center for Advancing Translational Sciences (NCATS).
RE007 growth inh: less growth of the S. pombe RE007 Vpr strain | S. pombe RE007 Vpr strain, BacTiter-Glo ATP luminescence, 24 h; control for the full effect not named in the record | Potency, µM (titrated, usually from 92.2 µM), inactives show at the top dose activity change, negative = less growth | actives 0.21% (n = 360,000); active = well fitted falling curve with a large enough effect; inconclusive = small, poorly fitted or top-dose-only effect; inactive = no such curve, though single readings can be large or run the other way;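 further: nearly all actives have a fitted effect of over 50% in size; the assay follows cell death caused by Vpr and the record does not say whether a fall means rescue or toxicity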
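Fission yeast strain RE007, carrying one chromosomally integrated HIV-1 vpr copy, was seeded at OD 0.01 in PMG+AL medium with 23 nL pinned compound. After 24 h at 30 °C and 99% humidity, viability was read by BacTiter-Glo luminescence.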
StopGo reporter: lowers the luciferase signal of an FMDV 2A StopGo reporter | human cells with a luciferase reporter of 2A StopGo recoding; control for the full effect not named in the record | Potency, µM (top dose mostly 57.9 µM), inactives show top-dose signal change, negative = less light | actives 1.2% (n = 410,000) | AID 1159524; active = well fitted falling curve with a large enough effect; inconclusive = small, poorly fitted or top-dose-only effect; inactive = no such curve, though single readings can be large or run the other way; tested in HEK293T cells; further: nearly all actives have a fitted effect of over 45% in size; luciferase light after 4 h
An asterisk follows results filed as active; ? = inconclusive; & = joins results of further samples; [ ] = remark or other dose. On the % scale 0 is the no-effect control and ±100 the full control effect; potency means the concentration at half of the fitted maximal effect. An excerpt; count on the stated rates, not on these rows.

SMILES	RE007 growth inh	StopGo reporter
CCNC(=O)C1(C)CCN(Cc2ccc(-c3ccccc3)cc2)C1 (stereo not drawn)	2%[18.4 µM]	-17%
CC1(C)C2CC[C@]3(C)C(CC=C4[C@@H]5C[C@@](C)(CO)[C@@H]6C[C@@]5(CC[C@]43C)C(=O)O6)[C@@]2(C)CC[C@@H]1O (stereo partly drawn)	-9%	-6%
CCOC(=O)[C@]12CCC=C1N(CCC1=CCCCC1)C(=O)[C@H](CC(=O)N1CCOCC1)C2	28%	-19%
CCc1nc2c(OCc3ccc4c(c3)OCO4)cccn2c1N(C=O)Cc1ccccc1	-12%	-4%
CCC(CO)Nc1ccn2nc(-c3ccccc3)cc2n1 (stereo not drawn)	-3%[18.4 µM]	31%[activator]
O=C1C=CC(c2c[nH]c3ccccc23)CC1 (stereo not drawn)	7%	0%
O=C(OCc1cn([C@H]2CN(CC3CCCCC3)[C@@H](c3ccc(Cl)cc3)C[C@@H]2O)nn1)c1ccccc1	-20%	?
O=S1(=O)CC(N2CCC(c3ccccc3)CC2)CN1Cc1ccccc1 (stereo not drawn)	2%	11%
COc1ccc(-n2nnnc2CNC(=O)c2c(-c3ccccc3Cl)noc2C)cc1	-8%	-13%
COc1ccc(CNC(=O)/C=C/[C@H]2O[C@@H](n3ccc(=O)[nH]c3=O)[C@H](O)[C@@H]2O)cc1	-4%	-15%
COc1ccc(CC(C)NCC(O)c2ccc(O)c(NC=O)c2)cc1 (stereo not drawn)	10%&-5%	-8%&-20%
CC(C)=CCc1c(O)cc2c(c1O)C(=O)CC(c1ccccc1)O2 (stereo not drawn)	-3%	-19%

Structural class, those above containing four or more nitrogen atoms (three)
SMILES	RE007 growth inh	StopGo reporter
CCC(CO)Nc1ccn2nc(-c3ccccc3)cc2n1 (stereo not drawn)	-3%[18.4 µM]	31%[activator]
O=C(OCc1cn([C@H]2CN(CC3CCCCC3)[C@@H](c3ccc(Cl)cc3)C[C@@H]2O)nn1)c1ccccc1	-20%	?
COc1ccc(-n2nnnc2CNC(=O)c2c(-c3ccccc3Cl)noc2C)cc1	-8%	-13%

Continued.
SMILES	RE007 growth inh	StopGo reporter
COc1ccc(S(=O)(=O)N(C)C[C@@H]2OCc3cnnn3CCCC(=O)N([C@H](C)CO)C[C@H]2C)cc1	3%	-13%
O=C(Nc1ccc(Cl)cc1)c1csc([C@@H]2C[C@H](O)[C@@H](CO)O2)n1	-18%	-10%
COC(=O)[C@]12CCCCC=C1N(Cc1cccc3ccccc13)C(=O)[C@H](CC(=O)NCc1ccccc1)C2	-3%	0%
CCCC(=O)Nc1ccc2c(c1)nc(CCN1CCC(C)CC1)n2C	-8%	-18%
O=C(Nc1cccc(F)c1)Nc1nnc([C@@H]2C[C@H](O)[C@@H](CO)O2)s1	7%[18.4 µM]	32%[activator]
COc1ccc(OC)c(C=C2CCc3ccccc3C2=O)c1	-5%	37%[activator]
O=C(NCc1ccc2c(c1)OCO2)c1ccc2c(c1)S(=O)(=O)c1ccccc1C2=O	-5%	11%
Cc1ccccc1CN1C(=O)c2ccccc2C1c1nnnn1Cc1ccccc1 (stereo not drawn)	7%	-8%
COc1ccc2nc3n(c(=O)c2c1)-c1cc2ccccc2cc1C(=O)NC3Cc1ccc(O)cc1 (stereo not drawn)	8%	?
Cc1ccc(S(=O)(=O)N2CC3(O)CN(C(=O)OC(C)C)N(C(=O)OC(C)C)CC3(OC(=O)NC3CCCC3)C2)cc1 (stereo not drawn)	16%	0%
COc1ccccc1S(=O)(=O)N(C)C[C@H]1Oc2cc(Br)ccc2S(=O)(=O)N([C@@H](C)CO)C[C@H]1C	-2%	2%
Cc1ccc(S(=O)(=O)N(CCc2ccccc2)c2ccc3c(c2)C2CC3CCN2C(=O)OCc2ccccc2)cc1 (stereo not drawn)	-7%	-16%

Next part; the last 6 above are carried over.
SMILES	RE007 growth inh	StopGo reporter
O=C(NCc1ccc2c(c1)OCO2)c1ccc2c(c1)S(=O)(=O)c1ccccc1C2=O	-5%	11%
Cc1ccccc1CN1C(=O)c2ccccc2C1c1nnnn1Cc1ccccc1 (stereo not drawn)	7%	-8%
COc1ccc2nc3n(c(=O)c2c1)-c1cc2ccccc2cc1C(=O)NC3Cc1ccc(O)cc1 (stereo not drawn)	8%	?
Cc1ccc(S(=O)(=O)N2CC3(O)CN(C(=O)OC(C)C)N(C(=O)OC(C)C)CC3(OC(=O)NC3CCCC3)C2)cc1 (stereo not drawn)	16%	0%
COc1ccccc1S(=O)(=O)N(C)C[C@H]1Oc2cc(Br)ccc2S(=O)(=O)N([C@@H](C)CO)C[C@H]1C	-2%	2%
Cc1ccc(S(=O)(=O)N(CCc2ccccc2)c2ccc3c(c2)C2CC3CCN2C(=O)OCc2ccccc2)cc1 (stereo not drawn)	-7%	-16%
O=S(=O)(Nc1cccc(S(=O)(=O)N2CCCC2)c1)c1ccc(Br)cc1	1%	-5%
CSc1ccc(NC(=O)NN(c2ccccc2)C2CCS(=O)(=O)C2)cc1 (stereo not drawn)	9%	6%
O=C(NCc1ccccc1)c1cc(C2CCCN(C(=O)c3cccs3)C2)on1 (stereo not drawn)	4%[18.4 µM]	-7%
Cc1cc(OCC(=O)OCC(=O)N2CCCCC2)ccc1Cl	3%	-14%
CCOc1ccc(N2CC(C(=O)Nc3cccc(S(=O)(=O)N4CCOCC4)c3)CC2=O)cc1 (stereo not drawn)	2%	-6%
CC1(C(=O)NS(=O)(=O)c2ccc(Cl)s2)CCN1C(=O)Cc1ccc(-c2ccccc2)cc1 (stereo not drawn)	6%[18.4 µM]	-3%
COc1cccc(C(C)(O)c2nc(-c3cccc(F)c3)cs2)c1 (stereo not drawn)	13%	?
O=C(NCc1ccc(F)cc1)c1cc(-c2ccccn2)nc2ccc(S(=O)(=O)N3CCOCC3)cc12	-13%	-25%
CC1CCC/C(=C\c2ccc(O)cc2)C1=O (stereo not drawn)	?	81%[activator]
CCN1C[C@@H]2[C@@H]3C(=O)N(C)C(=O)[C@@H]3[C@](Cc3ccccc3)(C1=O)N2C(=O)c1ccc(C)cc1	6%	-3%
COc1ccc(NC(=O)c2cc(C3CCCCN3S(=O)(=O)c3c(C)noc3C)on2)c(C)c1 (stereo not drawn)	-4%	-15%
CC1(C(=O)NCc2ccco2)Cc2c(-c3cccc(C(F)(F)F)c3)ccnc2O1 (stereo not drawn)	-10%	0%
CCOC(=O)C1=CCN(S(=O)(=O)c2ccc(F)cc2)C1c1ccccc1 (stereo not drawn)	-9%	?
O=Cc1ccc2c(c1)OCCOCCOCCOCCO2	-5%	-13%
COc1ccc(S(=O)(=O)N2CCCCC2)cc1NC(=O)CCc1cc(OC)c(OC)c(OC)c1	-24%	5%
COc1ccc(NC(=O)C2(C)Cc3c(-c4ccc(NC(C)=O)cc4)ccnc3O2)cn1 (stereo not drawn)	-8%	-6%
CC(=O)Nc1nn(CC(C)C)c2nc3ccc(C)cc3cc12	-2%	-21%
CC1(C(=O)NS(=O)(=O)c2ccccc2Cl)CCN1C(=O)CCc1cccs1 (stereo not drawn)	14%	0%
Cc1ccc([C@H]2N[C@]3(CCCN(Cc4ccccc4)C3=O)[C@H]3C(=O)N(C)C(=O)[C@@H]23)cc1	-6%	-18%
CCn1c(SCC(=O)NCCc2ccc(OC)c(OC)c2)nc2c([nH]c3ccccc32)c1=O	2%	-14%
CC(=O)Nc1cccc(-c2ccnc3c2CC(C(=O)NCc2cccs2)O3)c1 (stereo not drawn)	1%	?
CCCS(=O)(=O)NC(=O)C1(C)CCCN(C(=O)c2ccc(C#N)cc2)C1 (stereo not drawn)	0%	-15%
CC(C)CNc1ncnc2c1ncn2[C@H]1CN(Cc2ccc3c(c2)OCO3)C[C@@H](CO)O1	14%	-24%
COc1ccc(CN2C[C@@H](CO)O[C@@H](n3cnc4c(NCc5ccncc5)ncnc43)C2)cc1	2%	-10%
C[C@@H]1CCCCO[C@@H](CN(C)C(=O)CCCN(C)C)[C@@H](C)CN([C@H](C)CO)C(=O)c2cc(N(C)C)ccc2O1	-16%	-12%
CN(C(=O)c1ccccc1)C(=O)c1ccccc1	2%	-2%
CC(C)C[C@H]1CNC(=O)C(=O)N1C[C@H](Cc1ccc(O)cc1)NC(=O)Cc1ccccc1	0%	-20%
COc1ccc(NC(=O)C(c2ccccc2)n2c(=O)c(-c3cc4ccccc4[nH]3)nc3ccccc32)cc1 (stereo not drawn)	-15%	-2%
CC1(C(=O)NS(=O)(=O)c2ccccc2Cl)CCN1C(=O)C/C=C/c1ccccc1 (stereo not drawn)	1%[18.4 µM]	-8%
COc1ccc(C(=O)C=Cc2ccc(OCc3ccccc3)c(OC)c2)cc1OC	3%	?
CCOC(=O)CC1(C)c2nc(NC(C)=O)sc2Cc2sc(NC(C)=O)nc21	8%[18.4 µM]	22%
CC1CCCC(NC(=O)CCN2C(=O)COc3ccccc32)C1C (stereo not drawn)	-6%	-10%
CCNC(=O)C1(C)CCN(C(=O)c2cccc(C(F)(F)F)c2)C1 (stereo not drawn)	3%[18.4 µM]	-16%
COc1cccc(-c2ccc(NC(=O)C3CCCN(Cc4ccccn4)C3)cc2)c1 (stereo not drawn)	4%	0%
COc1ccc(C(=O)N2CCCC(c3cc(C(=O)NCc4ccc(F)cc4)no3)C2)cc1 (stereo not drawn)	15%	0%
CCCN(C)C1CN(Cc2cn(CCCOC)nn2)S(=O)(=O)C1 (stereo not drawn)	0%	-12%
CCCCNC(=O)c1nc(C2CCN(S(=O)(=O)c3ccc(F)c(F)c3)CC2)oc1-c1ccccc1	2%	-27%
CCOC(=O)N1CCC2(CC1)NC(=O)c1ccccc1N2	-9%	-12%
CCCc1c(-c2ccc(Cl)cc2)ncn1Cc1ccccc1OC	-16%	?
CC1(C(=O)Nc2ccc(Cl)cc2)Cc2c(-c3ccc4c(c3)OCO4)ccnc2O1 (stereo not drawn)	4%	-9%
COC[C@@H]1CCCN1c1ccc2c(c1)O[C@H](COCc1ccccc1)CN([C@H](C)c1ccccc1)S2(=O)=O	16%	8%
O=C(C[C@H]1C(=O)N(CCc2ccccc2)C[C@@H]1c1ccccc1)Nc1ccccc1	-5%	63%[activator]
N#Cc1ccccc1S(=O)(=O)NC(=O)[C@H]1O[C@@H](n2cnc3c(N)ncnc32)[C@H](O)[C@@H]1O	3%	-6%
CCCS(=O)(=O)NC(=O)C1(C)CCCN(C(=O)c2c(-c3ccccc3)noc2C)C1 (stereo not drawn)	-6%	-6%
COc1ccc(Cl)cc1NC(=O)NNC(=O)C(=O)Nc1ccc(F)cc1	1%	0%
C[C@@H]1CN([C@H](C)CO)C(=O)CCCn2nncc2CO[C@@H]1CN(C)S(=O)(=O)c1cccs1	2%	-12%
Cc1ccc([C@@H]2C[C@H]3[C@@H](CN2S(=O)(=O)c2ccc(Cl)cc2)C(=O)C[C@@H](c2cccc4ccccc24)N3S(=O)(=O)c2ccc(C)cc2)cc1	9%	-18%
COc1ccccc1-c1csc(C(C)(O)c2cccc(F)c2)n1 (stereo not drawn)	-12%	-6%
NC(c1ccc(F)c(F)c1)c1nc(-c2ccc3ccccc3c2)cs1 (stereo not drawn)	-20%	27%
CSCC[C@@H](CO)NC(=O)[C@H]1O[C@@H](n2ccc(N)nc2=O)[C@H](O)[C@@H]1O	3%	-11%
CC1CC(C)CN(c2nc3c(c(=O)n(C)c(=O)n3C)n2CCSc2nc3ccccc3o2)C1 (stereo not drawn)	0%	-30%
COc1ccc(CCC(=O)Nc2c(-c3ccc(N(C)C)cc3)[nH][nH]c2=O)cc1	-5%	-9%
COc1ccc(S(=O)(=O)N2CCC[C@H]2C(=O)N2CCC[C@H]2C(=O)NCc2ccc(F)cc2F)cc1C	1%	-3%
O=C(NCC(F)(F)F)c1cc2c(c(-c3cccc(-c4ccccc4F)c3)n1)[C@@H](CCO)N(C(=O)CC1CC1)C2	6%	-16%
CCCc1c(C(=O)N/N=C/c2ccc3c(c2)OCO3)nnn1-c1nonc1N	0%	6%
COc1ccc(NC(=O)C(C2CC2)n2c(=O)c(-c3ccco3)nc3ccccc32)cc1 (stereo not drawn)	-13%	-12%
COc1ncnc2c1ncn2CCCNCc1ccccc1	?	-4%
CC(=O)Oc1cc(C(=O)OCC(=O)NC23CC4CC(CC(C4)C2)C3)cc(OC(C)=O)c1OC(C)=O	-12%	31%[activator]
NC(Cc1ccc(Cl)cc1)c1csc(Nc2ccc(S(N)(=O)=O)cc2)n1 (stereo not drawn)	-6%[18.4 µM]	-17%
COc1ccc(-c2nc3c4ccccc4ccn3c2Cc2cccc(Cl)c2)cc1OC	-10%	15%
Going on with the list.
SMILES	RE007 growth inh	StopGo reporter
CC1(C(=O)NS(=O)(=O)c2cccs2)CCN1C(=O)C1(c2ccc(Cl)cc2)CCC1 (stereo not drawn)	6%[18.4 µM]	20%
COc1ccc(OCCn2c(C)nc3ccccc32)cc1	4%	0%
CCCNC(=O)C1(C)CCCN(C(=O)c2ccccc2OC)C1 (stereo not drawn)	6%[18.4 µM]	-7%
CN(C(=O)c1cccc(NC(=O)Cc2ccc(NC(=O)C3CCCN(C(=O)C4CCC4)C3)cc2)c1)C1CCCCC1 (stereo not drawn)	-2%	?
C[C@@H]1ON(C)[C@H]2C[C@H]3c4cc(N5CCN(C)CC5)ccc4CCN3C(=O)[C@@H]12	-30%	-7%
C[C@@H]1CN([C@H](C)CO)C(=O)CCCn2nncc2CO[C@@H]1CN(C)C(=O)C1CC1	11%	-2%
COc1cccc(C#Cc2ccc3c(c2)O[C@@H](CN(C)C(=O)c2ccccn2)[C@@H](C)CN([C@H](C)CO)S3(=O)=O)c1	11%	-4%
